Sa ugtP lethal: kills S. aureus RN4220 lacking UgtP; hit rate 0.54% among 330,000; S. aureus RN4220 ugtP deletion, OD600 growth, 16 h; some inactives read as strong as hits; AID 1259309; growth inhibition, % (no concentration beside the values);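 active = z-score under -3 and OD600 up to 0.15 on both plates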;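 also: plate controls were untreated wells for no effect and antibiotic for full effect; wells of about 80 µL received 100 nL stock; the first replicate is given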
PrP 5UTR inh: inhibition of PrP 5' UTR reporter expression; inhibition, % (concentration not given with the values); cell-based PrP 5' UTR mRNA reporter, plate reader; hit rate 0.35% among 340,000;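 active = every replicate at 50% or more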;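 also: 0 = median of the neutral control wells; tested in H4 reporter cells; numbers are from one replicate; inactives centre near -14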
Autofluor counter: counter-screen for toxin protease inhibitors: compound fluorescence | compound autofluorescence counterscreen, microsphere flow cytometry; active compounds read high | fluorescence intensity (no concentration beside the values) | AID 624483 | hit rate 3.1% among 360,000;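 active = at least 3 SD above the mean of all compounds, about 16000 in these data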;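 also: 100 nL of 1 mM stock went into each well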
BJeLR lethal: kills HRASV12-expressing BJeLR cells. BJeLR (HRASV12) viability, CellTiter-Glo ATP luminescence, 48 h; reference of the scale not given here. inhibition, % (concentration not given with the values). hit rate 0.17% among 300,000. AID 1554;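 active = replicate mean above 50%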;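 also: 50 nL library stock added to about 25 µL; numbers are from one replicate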
Mtb hypoxia rep: inhibitors of hypoxia-regulated fluorescent reporter in Mycobacterium tuberculosis | M. tuberculosis hypoxia-regulated fluorescent reporter, fluorescence | fluorescence inhibition, % (test concentration not listed) | hit rate 0.1% among 300,000;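 active = 35 to 45% if threefold the growth effect, above 45% if 1.5-fold the growth effect; inactive = the rest, general growth blockers included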;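 also: wells of about 50 µL received 100 nL stock; 0% = vehicle wells and 100% = reference inhibitor wells; whole bacteria with a GFP reporter of the hypoxia response; strong numbers were not always called active; many hits fall short of the cut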
RN4220 kill: kills Staphylococcus aureus RN4220; S. aureus RN4220 growth, OD600, 16 h; inhibition, % (test concentration not listed); hit rate 0.33% among 330,000;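 active = z-score of -3 or lower and OD600 up to 0.18 on both plates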;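 also: plate controls were untreated cells for no effect and reference antibiotic for full effect; stock transfer was 100 nL into about 80 µL; one replicate is shown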
Mtb hypoxia rep growth: recorded beside Mtb hypoxia rep, whose call it bears; growth inhibition, %; measured here: M. tuberculosis growth (absorbance);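 0% = vehicle and 100% = reference antibiotic; read after six days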
* hit, by the source's call; / = not tested or not shown.

#	SMILES	Sa ugtP lethal	PrP 5UTR inh	Autofluor counter	BJeLR lethal	Mtb hypoxia rep	Mtb hypoxia rep growth	RN4220 kill
1	Cc1ccc(Cl)cc1NC(=O)c1ccccn1	-2	-17	4225	1	9	3	7.7
2	Cc1noc(C)c1C(=O)OCC(=O)NCCc1ccc(S(N)(=O)=O)cc1	7	-13	4177	/	7	5	3.1
3	CCN1CCN(CC(=O)Nc2ccc(S(=O)(=O)N3C(C)CCCC3C)cc2)CC1 (configuration not stated)	6	-18	3631	2	16	9	1.2
4	CC1CC1C(=O)OCC(=O)NC(=O)NC12CC3CC(CC(C3)C1)C2 (configuration not stated)	6	-43	4521	-26	12	0	6.4
5	Cc1cccc([C@@H]2[C@@H]3C(=O)N(Cc4ccccc4)C(=O)[C@@H]3[C@]3(Cc4ccccc4)C(=O)N(c4cccc(Cl)c4)C(=O)N23)c1	/	-19	3772	5	/	/	/
6	CC(=O)Nc1c2c(nn1-c1ccc(C)cc1C)CSC2	2	-13	5220	-6	3	-8	0.9
7	O=C(N/N=C/c1c(O)n(Cc2ccccc2)c(=O)[nH]c1=O)c1ccccc1O	3	-28	2400	9	8	5	3.3
8	Nc1nc(C(F)(F)F)cc(=O)n1N	2	-15	2198	0	-4	6	3.4
9	COC(=O)c1ccc2c(=O)n(CC3CCCO3)c(=S)[nH]c2c1 (configuration not stated)	23	-21	9438	0	-5	-2	4.2
10	COc1ccccc1CNC(=O)c1ccccc1OC	3	-14	12192	-11	6	0	6.4
11	Cc1c(NC(=O)c2ccc(NS(=O)(=O)c3ccc(F)c(F)c3)cc2)c(=O)n(-c2ccccc2)n1C	4	-6	4558	/	5	4	4.4
12	O=C(Cn1cnc2c(NC(=O)OCc3ccccc3)ncnc21)NCc1ccccn1	-3	-21	3930	/	11	5	7.4
13	COc1cc(C(c2sc3nc(C)nn3c2O)N2CCN(c3ccccc3)CC2)cc(OC)c1OC (configuration not stated)	-3	-12	6123	2	1	7	-14
14	O=C1Nc2ccccc2N(O)N1c1cc(-c2ccccc2)[nH]n1	1	-14	2483	1	-5	-1	3.3
15	Cn1nc(C(F)(F)F)c(C=NOC(=O)c2ccccc2Cl)c1SCc1ccc(Cl)cc1	3	/	/	/	9	1	3.8
16	O=C(O)CC1SC(=NN=C2CCCCCCC2)N(c2ccccc2)C1=O (configuration not stated)	1	/	/	/	10	-1	8.3
17	Cc1ccc(C(=O)NNC(=O)CCC(=O)Nc2cccc(Cl)c2C)cc1	6	-10	2520	-4	2	5	5.3
18	COc1ccc(CNCCS(=O)(=O)NC2CCCC2)cc1	0	-12	4020	/	-3	5	2.2
19	COCc1ccc(C(=O)N2CCCC(CCC(=O)NCc3ccccc3F)C2)o1 (configuration not stated)	6	-24	3608	12	2	3	3.8
20	CCCCCC(=O)NNC1CC(=O)N(c2ccccc2)C1=O (configuration not stated)	-7	/	/	-6	1	-12	-2.0
21	O=C(c1ccc(NS(=O)(=O)/C=C/c2ccccc2)cc1)N1CCCCC1	1	-10	6816	-6	9	-8	2.0
22	Cn1nnc(C(O)CNCc2ccc(Cl)cc2)n1 (configuration not stated)	-8	-11	3447	-1	1	1	-3.6
23	CN(Cc1ccccc1)c1ccc2nnc(-c3ccccc3)n2n1	11	-3	5804	2	/	/	7.2
24	O=C(c1ccco1)N(CCC(c1ccccc1)c1ccco1)Cc1ccco1 (configuration not stated)	15	-13	/	-4	12	4	8.7
25	Cc1cc(C)c(S(=O)(=O)Cc2ccccc2)c(Cl)n1	12	-16	3452	2	14	7	4.4
26	CCOc1ccc(N(CC(=O)NCc2ccccc2C)S(C)(=O)=O)cc1	-1	-43	4147	-4	-3	-17	0.0
27	O=S(=O)(O)c1ccc2c(c1)C(C(Cl)(Cl)Cl)OC(C(Cl)(Cl)Cl)O2 (configuration not stated)	-4	-18	4171	/	5	5	2.1
28	O=c1[nH][nH]cc1C=NCc1cccc(C(F)(F)F)c1	2	-21	2529	2	0	1	1.8
29	O=C(Nc1ccc(Cl)cc1)N1CCCC(Cn2cccc2)C1 (configuration not stated)	-2	-3	/	-2	7	11	1.1
30	CC(=O)NS(=O)(=O)c1ccc(NC(=O)c2cc3c(=O)n4ccccc4nc3s2)cc1	3	-14	4399	2	3	-8	2.2

Part of the list above in order of molar mass, largest number first.
#	SMILES	Sa ugtP lethal	PrP 5UTR inh	Autofluor counter	BJeLR lethal	Mtb hypoxia rep	Mtb hypoxia rep growth	RN4220 kill
15	Cn1nc(C(F)(F)F)c(C=NOC(=O)c2ccccc2Cl)c1SCc1ccc(Cl)cc1	3	/	/	/	9	1	3.8
19	COCc1ccc(C(=O)N2CCCC(CCC(=O)NCc3ccccc3F)C2)o1 (configuration not stated)	6	-24	3608	12	2	3	3.8
2	Cc1noc(C)c1C(=O)OCC(=O)NCCc1ccc(S(N)(=O)=O)cc1	7	-13	4177	/	7	5	3.1
7	O=C(N/N=C/c1c(O)n(Cc2ccccc2)c(=O)[nH]c1=O)c1ccccc1O	3	-28	2400	9	8	5	3.3
18	COc1ccc(CNCCS(=O)(=O)NC2CCCC2)cc1	0	-12	4020	/	-3	5	2.2
20	CCCCCC(=O)NNC1CC(=O)N(c2ccccc2)C1=O (configuration not stated)	-7	/	/	-6	1	-12	-2.0
28	O=c1[nH][nH]cc1C=NCc1cccc(C(F)(F)F)c1	2	-21	2529	2	0	1	1.8

Next compounds.
#	SMILES	Sa ugtP lethal	PrP 5UTR inh	Autofluor counter	BJeLR lethal	Mtb hypoxia rep	Mtb hypoxia rep growth	RN4220 kill
31	CN(CC(=O)Nc1c(Cl)cccc1Cl)C(=O)CNC(=O)c1ccco1	2	-5	5955	/	10	-4	1.4
32	COc1cc(NC(=O)CSc2nccc(C)n2)c(C)cc1[N+](=O)[O-]	8	-28	2186	2	10	3	4.3
33	Cc1ccc(C)c(N2CCN(C(=O)CCc3nc(-c4ccccc4F)no3)CC2)c1	-1	-19	3851	/	-3	-1	2.2
34	Cc1csc2nc(CNS(=O)(=O)N(C)C)cn12	-5	-56	6730	-2	6	8	-5.3
35	Cc1cc(NC(=O)CSc2nnc(-c3c[nH]c4ccccc34)n2-c2ccc(Cl)cc2)no1	-6	-26	11000	15	9	5	3.5
36	O=C(CSc1nnc(CCCN2C(=O)c3cccc4cccc(c34)C2=O)n1-c1ccccc1)N1CCCCC1	-11	-27	2161	-13	2	8	7.3
37	CCCC(=O)Nc1ccc2c(c1)nc(CN1CCCC1)n2C	-4	-19	4075	-4	/	/	0.4
38	O=C(Nc1ccc2c(c1)OCO2)c1cccc(S(=O)(=O)N2CCCC2)c1	-2	-38	21861*	-3	-3	4	-1.7
39	CCc1ccc(NC(=O)c2noc3c2CCC3)cc1	-1	-18	6855	10	11	12	5.3
40	O=C(Nc1ccc2c(c1)nc1n2CCOC1)c1ccccc1	-9	-98	4191	-6	-2	6	-3.4
41	O=C(NN=CC=NNC(=O)c1ccco1)c1ccco1	1	/	/	/	-7	-1	-2.9
42	O=C1NCC(COCc2ccco2)O1 (configuration not stated)	-1	-19	11223	7	1	-2	1.8
43	Clc1ccc(-c2csc(Nc3ccccc3)[n+]2Cc2ccco2)c(Cl)c1	14	-54	4090	-4	8	7	-17
44	O=C(COc1ccc(N2C(=O)c3ccccc3C2=O)cc1)c1ccccc1	10	-17	2574	-5	7	-6	6.5
45	Cc1cccc(-n2c(C)cc(/C=C3/C(=N)N4C(c5ccccc5)=CSC4=NC3=O)c2C)c1	4	-9	2061	-25	-4	5	-1.6
46	Cc1nc(C)c(-c2ccc(SCc3ccccc3C)nn2)s1	1	-17	5604	4	-8	-6	6.3
47	CCOC(=O)CSc1nnc(-c2c[nH]c3ccccc23)o1	5	-35	4120	0	14	7	2.2
48	CCC1CCCCN1C(=O)COC(=O)c1n[nH]c2ccccc12 (configuration not stated)	-5	-24	3276	/	8	14	-15
49	O=C(CC1SC(=NC2CCCCC2)NC1=O)Nc1ccccc1 (configuration not stated)	-5	-23	8452	3	12	6	2.4
50	COc1ccc(C)cc1NS(=O)(=O)c1ccccc1	2	-26	3077	/	11	9	5.6
51	Cc1occc1C(=O)N1CCCC(Nc2ccc(F)cc2)C1 (configuration not stated)	-3	-17	6730	3	13	-2	4.0
52	C=CCOc1c(Br)cc(C=C2NC(=S)N(C(C)=O)C2=O)cc1OC	-3	/	/	/	-3	-1	0.2
53	O=C1C2C3C=CC(C4CC34)C2C(=O)N1CCCCN1CCN(c2ccc(F)cc2)CC1 (configuration not stated)	8	3	5425	-1	-1	5	4.9
54	CN(C(=S)NC(=O)c1ccccc1)C1CCCCC1	7	0	5309	7	1	1	2.8
55	CCOC(=O)c1c(N2C(=O)C3CC(C)=C(C)CC3C2=O)sc(C)c1C (configuration not stated)	20	-21	9209	-2	-7	-3	10
56	Cc1ccccc1OCC(=O)NCCCNC(=O)c1ccco1	2	-23	6166	4	-8	-10	-0.4
57	O=C(CCC(=O)Nc1ccc(F)cc1)N/N=C/c1c[nH]c2ccccc12	/	-16	2503	9	/	/	/
58	O=C(NN1CCOCC1)c1ccc(Cl)cc1	7	-8	2531	2	6	10	3.0
59	Cc1cccc(NC(=O)Cc2noc3ccccc23)c1	-6	-44	10593	-4	7	9	3.4
60	COc1ccc(C(Nc2cc(C)ccn2)c2ccc3ccc(C)nc3c2O)cc1 (configuration not stated)	14	-5	3106	4	0	2	5.8

Copied from the list.
compound 17 | PrP 5UTR inh: -10
compound 30 | Mtb hypoxia rep: 3
compound 42 | RN4220 kill: 1.8

The list continues:
#	SMILES	Sa ugtP lethal	PrP 5UTR inh	Autofluor counter	BJeLR lethal	Mtb hypoxia rep	Mtb hypoxia rep growth	RN4220 kill
61	O=C1N=c2ccccc2=C1c1sc(Nc2ccc(O)cc2)nc1O	-3	-14	4238	/	13	6	14
62	O=C(NCc1ccco1)C1CCCN(S(=O)(=O)c2cccc3nonc23)C1 (configuration not stated)	10	/	/	9	/	/	-0.1
63	CC(=Nc1ccc(Br)cc1)c1sc2ccccc2c1O	11	-157	4388	-1	6	8	-1.6
64	COc1ccc2cnnc(SCC(=O)Nc3ccc(C(=O)O)cc3)c2c1OC	/	-13	2643	-3	/	/	/
65	CCOc1ccc(NC2c3ccccc3C(=O)N2Cc2ccc3c(c2)OCO3)cc1 (configuration not stated)	7	-14	4258	1	7	9	-6.8
66	COc1cc(OC)c(NC(=O)N2CCOCC2)cc1Cl	17	-19	4073	11	7	-1	5.2
67	CC(Sc1ccccc1)C(=O)NCCc1ccccc1 (configuration not stated)	6	-12	3514	7	11	14	7.1
68	O=C(O)CSc1nnc(-c2ccc(S(=O)(=O)N3CCCC3)cc2)n1Cc1ccco1	5	-12	11292	/	3	-3	3.8
69	Cc1ccc(COc2ccc(C(=O)NN)cc2)cc1	18	-17	4695	4	10	6	4.2
70	Cc1ccc(C)c(Oc2cc(F)nc(N)n2)c1	16	-3	12396	2	8	12	5.7
71	O=C(Nc1nc(-c2cccs2)c(-c2ccccc2)s1)c1ccco1	70	-7	2284	-3	/	/	15
72	CCOc1cccc(OCCCCN2CCOCC2)c1	-11	3	2461	-3	-1	-1	0.8
73	O=C(Nc1cc(-c2nc3ncccc3o2)ccc1Cl)c1ccc([N+](=O)[O-])o1	1	-7	3738	6	4	1	7.9
74	Cc1cc(C(=O)N2CCN(S(C)(=O)=O)CC2)sc1-c1ccccc1	7	-30	9585	-3	3	-7	0.6
75	Cc1cc(N/C(=N\S(=O)(=O)c2ccc(Cl)cc2)c2ccc(F)cc2)no1	/	7	4386	3	/	/	/

Profiles, looked up by structure.
Profile of O=C(Nc1nc(-c2cccs2)c(-c2ccccc2)s1)c1ccco1 = Sa ugtP lethal = 70; PrP 5UTR inh = -7; Autofluor counter = 2284; BJeLR lethal = -3; Mtb hypoxia rep = /; Mtb hypoxia rep growth = /; RN4220 kill = 15
Profile of O=C1N=c2ccccc2=C1c1sc(Nc2ccc(O)cc2)nc1O = Sa ugtP lethal = -3; PrP 5UTR inh = -14; Autofluor counter = 4238; BJeLR lethal = /; Mtb hypoxia rep = 13; Mtb hypoxia rep growth = 6; RN4220 kill = 14

High-throughput results: PubChem, several laboratories
